NPYLR7 ag – agonists of mosquito NPYLR7 receptor, primary screen, cell-based, Aedes aegypti, calcium fluorescence, mosquito biting behavior; Aedes aegypti neuropeptide Y-like receptor 7 (NPYLR7); activation, % at 10 µM; HEK293T NPYLR7/Galpha15, GCaMP6s calcium fluorescence; hit rate 0.15% among 270,000; in the data active = activation above about 40%;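 note: 0% = vehicle and 100% = reference agonist at the receptor; some compounds past the cut are filed as inactive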
NPYLR7 ag max-min – also measured in NPYLR7 ag; calls as there; activation, %; measured here: Max-Min RFU normalised activation; some inactives read as strong as hits;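 span of the calcium signal over five minutes; 0% = vehicle and 100% = native peptide agonist; compound fluorescence can raise it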
* marks the source's active call; other numbers are inactive results; & = joins results of further samples. A portion of the library (hit frequency here may not be typical).

Each structure is followed by: NPYLR7 ag, NPYLR7 ag max-min
> Cc1ccc(C2=NOC(CN(Cc3cccc(C(F)(F)F)c3)C(=O)C3CCCC3)C2)cc1 (stereo not given)
 : 0, 5
> O=C(Nc1cccc(Cl)c1)N1CCN(c2ncc(C(F)(F)F)cc2Cl)CC1
 : 0, -4
> C[S+](C)C1C(=O)NC(=O)N(c2ccccc2)C1=O (stereo not given)
 : -1, -2
> CC(CCc1ccccc1)NC(=O)CCCCSc1nnc(Cc2ccccc2)n1-c1ccc(Cl)c(Cl)c1 (stereo not given)
 : -1, 0
> Cc1cccc(C(=O)N2C(C(=O)NCc3ccncc3)COC23CCN(C(=O)c2cccc(F)c2)CC3)c1 (stereo not given)
 : 0, 2
> Cc1cccc(C(=O)N2C(C(=O)O)COC23CCN(C(=O)c2ccco2)CC3)c1 (stereo not given)
 : 8, 5
> Cc1ccsc1CN(Cc1cccn1-c1ncccn1)CC(C)C
 : 11, 9
> Cc1cc(C)cc(NC(=O)c2nnn(CC(=O)Nc3ccc(C)c(C)c3)c2N)c1
 : -11, -18
> Cc1cc(=O)oc2cc(NC(=S)NNC(=O)c3ccc(-n4cccc4)cc3)ccc12
 : -12, -16
> Cc1cccc(OCc2ccc(-c3nc(C#N)c(N4CCCC4)o3)o2)c1
 : 1, 1
> CCCCCCc1cc2cc(-c3csc(Nc4ccccc4)n3)c(=O)oc2cc1O
 : 12, 5
> Cn1c(CCNC(=O)c2cn(CC3CCCNC3)nn2)nc2ccccc21 (stereo not given)
 : -1, -10
> CCN(CC)CCN(C(=O)c1ccnn1CC)c1nc2c(C)c(Cl)ccc2s1
 : 1, 4
> COc1cccc2sc(=NC(=O)C3CCCCN3S(=O)(=O)c3cccs3)n(C)c12 (stereo not given)
 : 5, 3
> Cc1cccc(-c2ncc(CN3CCN(C4CCN(C(C)C)CC4)C(CCO)C3)cn2)c1 (stereo not given)
 : -18, -22
> CCOC(=O)C1CCN(C(=O)c2nn(-c3ccc(C(F)(F)F)cc3)c(=O)n(Cc3ccccc3)c2=O)CC1
 : 17, 13
> CCOC(=O)C1CCN(C(=O)CCN(c2nc(Cc3cccc(OC)c3)ns2)C(C)C)CC1
 : -6, 1
> Cc1nc(NCCNC(=O)c2cccs2)cc(-n2cccn2)n1
 : 19, 16
> Cc1ccc(-n2ncc3c2CC(C)(C)CC3NC(=O)CCc2ccco2)cc1 (stereo not given)
 : 5, 1
> COc1cccc(CCNC(=O)c2cc(N3CCSCC3)nc3ccccc23)c1
 : 13, 20
> O=[N+]([O-])c1cccc(-c2noc(CCN(Cc3ccco3)CC(O)COCc3ccccc3)n2)c1 (stereo not given)
 : 3, 3
> CCCOc1ccccc1N1C(=O)CC(Nc2ccc(NC(C)=O)cc2)C1=O (stereo not given)
 : -11, -15
> Cc1ccc(C(=O)Nc2ccc3[nH]cc(CCN4CCN(c5cccc(C(F)(F)F)c5)CC4)c3c2)cc1F
 : 8, 2
> CCOC(=O)C1=C(C)NC2=C(C(=O)CC(C)(C)C2)C1c1ccc(O)c(OC)c1 (stereo not given)
 : -2, -10
> O=C(COC(=O)c1cccc(NC(=O)c2ccccc2Br)c1)c1cccc([N+](=O)[O-])c1
 : -4, -7
> CCC1=NS(=O)(=O)c2cc(NC(=O)COC)ccc2N1c1ccccc1
 : 28, 20
> O=C1C(Nc2cccc(Cl)c2)=C(N2CCCCC2)C(=O)c2ccccc21
 : 2, -2
> CCOc1ccc(C(=O)Nc2ccc(NC(=O)c3ccc(C(C)(C)C)cc3)cc2)cc1[N+](=O)[O-]
 : 11, 12
> CCOC1CCCN(C(=O)Cc2cccc3ccccc23)C1 (stereo not given)
 : -3, -5
> CCC(C)N(Cc1ccc(OS(=O)(=O)c2ccc(F)cc2)cc1)C(=O)c1ccccc1OC (stereo not given)
 : -2, 0
> O=C(c1cc(=O)[nH]c2ccc(F)cc12)N(Cc1ccccn1)CC1CCCO1 (stereo not given)
 : 22, 10
> Cc1cc(NC(=O)C(C)(C)C)sc1C(=O)N=c1sccn1C
 : 4, -1
> CC(C)N(CCC(=O)NCCN1CCOCC1)c1nc(C2CC2)nc2ccccc12
 : 2, 14
> CCCCN(C(=O)NC1CCCCC1)c1c(N)n(CCCC)c(=O)[nH]c1=O
 : 4, 2
> Cc1c(Br)c(C(F)(F)F)nn1CC(=O)NCc1ccc(Cl)cc1
 : 2, -3
> Cc1ccc(CSc2ccc(NC(=O)C3CC3)nn2)cc1
 : 1, 0
> Cn1c(=O)c2c(nc(S(C)(=O)=O)n2C)n(C)c1=O
 : 11, 9
> CCOC(=O)C1(C)CCCCCN1C(=O)c1ccc(Cl)nc1 (stereo not given)
 : 3, 2
> O=[N+]([O-])c1ccccc1NN=C1CCCCc2ccccc21
 : 2, -3
> COC(=O)c1cc(Cl)cc([N+](=O)[O-])c1N
 : 6, 7
> CCN(CC)C(=O)C1CCCN1C(=O)NC(C)c1c(C)noc1C (stereo not given)
 : -2, -2
> O=C(Nc1cccc(-c2cccc(F)c2)c1)C1CCN(Cc2cccs2)CC1
 : 12&16, 4&14
> COc1ccc(NC(=O)Nc2ccc(N3CCC(Cc4ccccc4)CC3)c(C(=O)N3CCCC3)c2)c(OC)c1
 : -10, -6
> Cc1cc(C)c2nc(N=C(N)NC(=O)c3ccccc3)nc(C)c2c1
 : -8, -13
> COc1cccc2sc(N(Cc3cccnc3)C(=O)CCc3ccccc3)nc12
 : -16, -13
> Cc1ccc(N2C(=O)NC(=O)/C(=C\c3ccc(N(C)C)o3)C2=O)cc1
 : 5, 1
> COCCCN=C1NN=C(c2cc(C)n(Cc3ccco3)c2C)CS1
 : 3, -1
> O=C(Nc1ccccn1)N1CCN(Cc2ccccc2)C2(CCCCC2)C1
 : -9, -9
> O=S(=O)(c1ccc(Cl)s1)N1CCCC(c2nc3ccccc3s2)C1 (stereo not given)
 : 2, 2
> CCOC(=O)C1CCCN(C(=O)c2cc(-c3ccccc3Cl)nc3cc(C(C)(C)C)nn23)C1 (stereo not given)
 : 17, 14
> Cc1ccccc1CN1CCC(CN(Cc2cccnc2)C(=O)c2sccc2C)CC1
 : -1, -6
> CN(CC1CCCCC1)C(=O)c1cc2ccccc2c(=O)[nH]1
 : 5, 3
> CNC(=O)[C@@H]1CN2CCN(C3COC3)C[C@@H]2[C@H]1c1ccccc1
 : 8, 17
> c1ccc2c(c1)CCN(C1CCN(c3nc4nonc4nc3N3CCOCC3)CC1)C2
 : 3, 4
> COC(=O)C1=C(C)N(c2ccc(OC)cc2)C(C)=C(C(=O)OC)C1c1ccccc1
 : 9, 7
> Cc1c(C(=O)N2CCN(S(=O)(=O)c3cccs3)CC2)oc2ccc(Cl)cc12
 : 1, -4
> c1ccc(C2=NCCn3c(CN4CCN(c5ccccn5)CC4)ccc32)cc1
 : 20, 10
> COc1ccc(CN2CCOC(COc3ccc(F)cc3F)C2)cc1OC (stereo not given)
 : 5, 6
> CCc1nnc(CN(C(=O)c2oc3cc(OC)ccc3c2C)C(C)C)o1
 : -5, -12
> O=C(c1cccc(F)c1)N(Cc1ccc(OS(=O)(=O)c2ccc(F)cc2)cc1)C1CC1
 : 4, 9
> CN1CCC=C(c2noc(C3CCCN3C(=O)C3CCCCC3)n2)C1 (stereo not given)
 : 16, 16

Of the compounds above, 10 contain a Cl atom.
Each structure is followed by: NPYLR7 ag, NPYLR7 ag max-min
> O=C(Nc1cccc(Cl)c1)N1CCN(c2ncc(C(F)(F)F)cc2Cl)CC1
 : 0, -4
> CC(CCc1ccccc1)NC(=O)CCCCSc1nnc(Cc2ccccc2)n1-c1ccc(Cl)c(Cl)c1 (stereo not given)
 : -1, 0
> CCN(CC)CCN(C(=O)c1ccnn1CC)c1nc2c(C)c(Cl)ccc2s1
 : 1, 4
> O=C1C(Nc2cccc(Cl)c2)=C(N2CCCCC2)C(=O)c2ccccc21
 : 2, -2
> Cc1c(Br)c(C(F)(F)F)nn1CC(=O)NCc1ccc(Cl)cc1
 : 2, -3
> CCOC(=O)C1(C)CCCCCN1C(=O)c1ccc(Cl)nc1 (stereo not given)
 : 3, 2
> COC(=O)c1cc(Cl)cc([N+](=O)[O-])c1N
 : 6, 7
> O=S(=O)(c1ccc(Cl)s1)N1CCCC(c2nc3ccccc3s2)C1 (stereo not given)
 : 2, 2
> CCOC(=O)C1CCCN(C(=O)c2cc(-c3ccccc3Cl)nc3cc(C(C)(C)C)nn23)C1 (stereo not given)
 : 17, 14
> Cc1c(C(=O)N2CCN(S(=O)(=O)c3cccs3)CC2)oc2ccc(Cl)cc12
 : 1, -4

Reprinted at random: 2 compounds from above
Each structure is followed by: NPYLR7 ag, NPYLR7 ag max-min
> COCCCN=C1NN=C(c2cc(C)n(Cc3ccco3)c2C)CS1
 : 3, -1
> CNC(=O)[C@@H]1CN2CCN(C3COC3)C[C@@H]2[C@H]1c1ccccc1
 : 8, 17

High-throughput results (PubChem BioAssay)
